Bioassay records (PubChem)
D2 PAM: human D2 receptor positive allosteric modulation | DiscoveRx D2 beta-arrestin cells, luminescence, 90 min; 100% = 57 uM dopamine signal | 360,000 tested, 0.23% active | potentiation, % (test concentration not listed) | AID 624464; active = potentiation of 50% or more; inconclusive = 30% to 50%; inactive = 30% or less;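 note: compound concentration not given in the record; tested on top of an EC20 dose of dopamine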
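PathHunter beta-arrestin assay in DiscoveRx D2 cells. Compounds were added with an EC20 of dopamine (50 nM final) for 90 min at 37 deg C. Luminescence was read 1 h after detection reagent, with 57 uM dopamine as the EC100 control.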
Sfp inh: inhibitors of Bacillus subtilis Sfp phosphopantetheinyl transferase. Potency, µM, without a hit: max response, negative = inhibition, actives largely listed as inhibitors. Biochemical Sfp PPTase activity, qHTS. AID 1490. 310,000 tested, 3.5% active. Q9F4F7; active = well fitted inhibition curve with a large enough effect; inconclusive = small, poorly fitted or top-dose-only effect, or another doubt; inactive = no such curve, though single readings can be large or run the other way;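 note: the enzyme is Sfp with the accession as filed and its product quenches rhodamine fluorescence; potency is the fitted concentration of half-maximal effect; 0% = enzyme reaction without inhibitor and -100% = no enzyme wells; top concentration of the series not given in the record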
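Buffer: 50 mM Hepes-Na pH 7.6, 10 mM MgCl2, 0.01% Nonidet P-40, 0.01% BSA. Enzyme 15 nM, pre-exposed to compound 15 min; substrates then added and fluorescence change tracked over 30 min.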
D2 ag: agonists of human D2 dopamine receptor (beta-arrestin); 360,000 tested, 0.084% active; activation, % (test concentration not listed); DiscoveRx PathHunter D2 beta-arrestin, luminescence, 90 min; 100% = 57 uM dopamine signal; in the data active = activation above about 40%; inconclusive = about 15% to 40%; inactive = below about 15%; note: compound concentration not given in the record; the text of the record calls up to 30% inactive
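Agonist mode: compounds alone added to overnight-plated D2 PathHunter cells for 90 min at 37 C, with 57 uM final dopamine (EC100) defining full response. Beta-arrestin recruitment detected by chemiluminescent reagent, read after 1 h at ambient temperature.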
Six1-Eya2 inh: Six1/Eya2 interaction inhibition. AlphaScreen GST-Six1/His-Eya2 binding, biochemical; active compounds read low; control for the full effect not named in the record. activity change, % (concentration not given with the values). Q15475+O00167. 360,000 tested, 0.56% active; in the data active = activity change below about -65%; inconclusive = about -30% to -65%; inactive = above about -30%; note: % is set by controls: 0 for no effect and ±100 for the full control effect
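AlphaScreen with GST-Six1 and His-Eya2 (5X mix: 250 nM and 500 nM), glutathione donor and nickel acceptor beads; buffer 50 mM Tris pH 8.0, 300 mM NaCl, 1 mM TCEP; 1 h at 37 C in the dark.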
TRPV1 PAM: human TRPV1 potentiation; TRPV1-expressing cells, Fluo-8 calcium influx, capsaicin EC20 potentiation; host cell line not named in the record; control for the full effect not named in the record; Q8NER1; potentiation, % at 8.33 µM; 320,000 tested, 0.02% active; active means potentiation above 80%; inconclusive means 30% to 80%; inactive means below 30%; note: 0% is about no effect
Target sequence (Q8NER1 whole entry, looked up): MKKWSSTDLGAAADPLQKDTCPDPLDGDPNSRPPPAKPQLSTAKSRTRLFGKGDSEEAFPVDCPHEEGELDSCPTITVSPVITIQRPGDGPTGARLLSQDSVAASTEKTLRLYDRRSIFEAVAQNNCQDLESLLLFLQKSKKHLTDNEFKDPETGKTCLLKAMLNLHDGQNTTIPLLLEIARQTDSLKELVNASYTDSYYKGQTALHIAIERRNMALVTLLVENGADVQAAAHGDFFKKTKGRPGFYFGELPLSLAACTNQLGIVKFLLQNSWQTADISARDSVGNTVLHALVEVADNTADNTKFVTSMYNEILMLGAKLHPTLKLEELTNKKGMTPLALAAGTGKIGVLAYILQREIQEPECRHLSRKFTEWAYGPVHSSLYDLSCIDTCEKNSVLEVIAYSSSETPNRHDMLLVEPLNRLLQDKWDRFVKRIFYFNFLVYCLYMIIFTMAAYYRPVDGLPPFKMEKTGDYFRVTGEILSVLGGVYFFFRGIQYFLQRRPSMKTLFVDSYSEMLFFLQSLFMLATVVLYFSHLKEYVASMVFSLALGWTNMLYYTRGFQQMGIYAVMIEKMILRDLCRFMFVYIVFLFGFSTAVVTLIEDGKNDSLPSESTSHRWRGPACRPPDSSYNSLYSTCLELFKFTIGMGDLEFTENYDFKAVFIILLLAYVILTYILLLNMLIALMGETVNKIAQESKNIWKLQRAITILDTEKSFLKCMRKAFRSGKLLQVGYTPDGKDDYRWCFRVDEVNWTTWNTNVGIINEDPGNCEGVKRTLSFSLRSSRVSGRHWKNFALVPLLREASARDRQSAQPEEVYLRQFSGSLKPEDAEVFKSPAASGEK
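TRPV1-expressing cells were cultured overnight at 35.5C and loaded with Fluo-8 calcium dye for 40 to 90 min at room temperature. After a 10 s baseline, compound was added and calcium influx was read kinetically for 3 min (ex 480/em 520 nm).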
CtBP-E1A blk: inhibitors of CtBP/E1A interaction | AlphaScreen GST-E1A/His-CtBP binding, 1536-well; active compounds read low; control for the full effect not named in the record | activity change, % (concentration not given with the values) | 340,000 tested, 0.49% active; in the data active means activity change below about -65%; inconclusive means about -30% to -65%; inactive means above about -30%; note: % is set by controls: 0 for no effect and ±100 for the full control effect
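In 5 uL wells, 23 nL compound meets equimolar GST-E1A and His-CtBP (5X stock 125 nM each) for 2 h, 37 °C. Beads (5X, 50 ug/mL) then 1 h, 37 °C, dark.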
PINK1 modulator: changes PINK1 expression | AID 624263 | PINK1 immunofluorescence, high-content cytometry, 24 h | 410,000 tested, 0.2% active | Potency, µM (doses to about 76.6 µM), for inactives: top-dose activation (PINK1 increase), most hits filed as activators; active = well fitted activation curve with a large enough effect; inconclusive = small, poorly fitted or top-dose-only effect; inactive = flat fitted curve, though single readings scatter; cell line not stated here;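 note: potency is the fitted concentration of half-maximal effect; % of control where 0% means no effect; nearly all actives have a fitted effect of over 65% in size; a mitochondrial uncoupler was the plate control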
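A stable cell line was treated with compounds at 5 concentrations for 24 hours, with CCCP as control. PINK1 levels and mitochondrial localization were measured by immunofluorescence with mitochondrial, cell and nuclear markers after fixation, read by laser-scanning cytometry.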
* marks the source's active call; other numbers are inactive results; u = inconclusive; x = not tested or not shown; & = joins results of further samples; [ ] = remark or other dose.

Results follow in this order: D2 PAM	Sfp inh	D2 ag	Six1-Eya2 inh	TRPV1 PAM	CtBP-E1A blk	PINK1 modulator
> Fc1ccccc1Cc1noc(CN(Cc2ccccn2)CC2CCCO2)n1 (stereo not given)
 : 1	4%	-5.0	-5	-4	-19	1.7%
> C=CCn1cccc(C(=O)Nc2ccc(F)cc2)c1=O
 : -1	12%	-6.2	5	-15	x	1.1%
> O=C(Nc1cccc(S(=O)(=O)N2CCOCC2)c1)c1cnccn1
 : -9	1%	-1.1	13	-4	1	2.3%
> O=C(CCc1ccccn1)N1CCCC(Nc2ccc(F)cc2)C1 (stereo not given)
 : -12	-1%	-2.5	2	u	3	0.9%
> CC(C)c1ccc(NS(=O)(=O)c2cn(C)c(=O)n(C)c2=O)cc1
 : -4	20%	-1.2	2	8	-4	-0.8%
> COc1ccc(-c2cnc(OC(C)(C)C)nc2OC(C)(C)C)cc1OC
 : -5	0%	-2.7	-6	8	2	18%
> CSc1nnnc2ccccc12
 : -16	x	-1.4	-11	x	-4	-0.7%
> O=C(C1CCCCC1)N1CCC(c2nc3ccccc3[nH]2)CC1
 : -11	7%	0.1	1	-13	7	-2.5%[38.3 µM]
> CCc1nnc(NC(=O)[C@@H](NC(=O)c2cccc(C)c2)C(C)C)s1
 : -19	3%	-1.5	5	-8	3	2.7%
> Cc1ccc(S(=O)(=O)Nc2ccc3c(c2)nc(CN2CCCC2)n3C)cc1
 : -52	11%	-3.2	0	-4	1	0.9%
> O=C1C(=O)N(CCN2CCOCC2)C(c2cccc(Cl)c2)/C1=C(/O)c1ccc2c(c1)OCO2 (stereo not given)
 : -7	11%	-2.0	0	-5	-4	-0.7%
> COC(=O)c1cc2nc(-c3ccc(OC)cc3)cc(C(F)(F)F)n2n1
 : -7	10%	-2.6	-14	4	-10	u
> CCCCOc1ccc(/C(O)=C(\C#N)c2nc3ccccc3[nH]2)cc1
 : 5	15%	-2.3	26	5	4	2.5%
> CC(C)NCC(O)COCCOc1ccc(C(C)(C)C)cc1 (stereo not given)
 : 1	-2%	0.8	5	-4	19	-0.3%
> CCC(CC)C(=O)Nc1nc(-c2ccc3c(c2)CCN3C(=O)C2CC2)c(C)s1
 : 1	-1%	0.8	-1	8	-2	12%

Going on with the list:
Results follow in this order: D2 PAM	Sfp inh	D2 ag	Six1-Eya2 inh	TRPV1 PAM	CtBP-E1A blk	PINK1 modulator
> Cc1ccc(S(=O)(=O)Cc2ccc(C(=O)NCCCN3CCCC3=O)o2)cc1
 : 1	-14%	-3.3	-1	1	14	1.2%
> CCOC(=O)CSC1=C(C#N)C(c2ccc(Cl)cc2)C(C(=O)OC)C(=O)N1 (stereo not given)
 : -1	u	-0.2	-2	9	u	u
> COc1ccccc1NC(=O)COc1ccc(CO)cc1Cl
 : -14	2%	-2.3	5	-8	-4	-1.3%
> CCN(CC)S(=O)(=O)c1ccc(N2CCOCC2)c(NC(=O)c2ccc(=O)[nH]c2)c1
 : -5	x	4.7	10	x	2	-0.4%
> CN(C(=O)NC(=O)C1=C(N2CCOCC2)/C(=C/c2ccccc2)CC1)S(C)(=O)=O
 : -14	-1%	2.0	-3	13	-2	-4.8%[38.3 µM]
> CC1CCCCN1C(=O)CSc1nnc(-c2ccccc2F)o1 (stereo not given)
 : -4	3%	-4.8	17	-15	3	-1.8%
> CC(=O)c1ccc(NC(=S)N2CCC(Cc3ccccc3)CC2)cc1
 : -12	u	-2.8	-22	3	-16	-1.5%
> O=C(Nc1ccc(Br)cc1)Nc1ccccc1Cl
 : 3	-18%	3.9	9	-28	x	13%
> O=C(COc1ccc(Cl)cc1)Nc1cccc(-c2ccc(N3CCOCC3)nn2)c1
 : -5	x	-1.6	-2	12	-6	1.1%
> O=c1c2cc([N+](=O)[O-])ccc2sn1-c1ccccc1
 : -5	x	-16	22	x	0	1.6%
> Nc1nc(/C=C/c2ccc(F)cc2)nc(-c2ccccc2O)n1
 : -7	1%	-7.0	4	-11	-12	6.8%
> Fc1ccccc1-c1nnc2c3ccccc3nc(N3CCOCC3)n12
 : -3	8%	-0.3	-3	21	-1	0.7%
> COc1ccc(CCN2CCCn3c2nc2c3c(=O)n(CC(N)=O)c(=O)n2C)cc1OC
 : -4	-24%	-1.4	1	6	-1	-0.2%
> CCCN1C2=C(C(=O)CC(C)(C)C2)C(c2ccc(F)cc2)C2=C1c1ccccc1C2=O (stereo not given)
 : -6	6%	-2.0	-6	11	-8	22%[38.3 µM]
> Cc1ccc(S(=O)(=O)NCc2ccccc2)cc1C(=O)NCC(=O)Nc1c(C)cccc1C
 : -10	x	4.1	-7	x	3	1.5%

Remaining list, next part
Results follow in this order: D2 PAM	Sfp inh	D2 ag	Six1-Eya2 inh	TRPV1 PAM	CtBP-E1A blk	PINK1 modulator
> CCOC(=O)C1CCCN(c2c(C(=O)c3ccccc3)cnc3ccccc23)C1 (stereo not given)
 : -7	-16%	-2.0	-7	11	-7	3.1%
> CN(CC(=O)Nc1ccc(OC(F)(F)F)cc1)C(=O)c1ccc(N2CCCC2=O)cc1
 : -2	x	5.1	0	-8	-3	-0.4%
> CC(C)C(=O)NNC(=O)CSc1ncnc2c1cnn2-c1ccccc1Cl
 : -1	1%	1.7	0	22	x	2.2%
> O=C(COc1cccnc1[N+](=O)[O-])Nc1cccc(S(=O)(=O)N2CCOCC2)c1
 : 4	4%	6.6	-3	23	x	-1.6%
> CC1CCC2(CC1)NC(=O)N(CC(=O)N1CC(C)CC(C)C1)C2=O (stereo not given)
 : 11	x	-1.2	7	x	-1	1.5%
> Cc1ccc(C2NC(=O)Cc3ccccc32)cc1 (stereo not given)
 : 0	-4%	-3.4	17	7	-3	1.0%
> Cc1noc(C)c1-c1ccc(C(=O)NCc2cccc(Cl)c2)c2occc12
 : -6	x	4.5	-13	x	-6	5.2%
> CSc1ccccc1NC(=O)CSCc1ccccc1Br
 : -6	14%	-4.2	20	-13	20	8.2%
> CCc1ccccc1OCC(=O)Nc1ccc(F)c(S(=O)(=O)N2CCOCC2)c1
 : -3	x	0.8	-2	-9	2	2.1%
> CCc1noc(C)c1C(=O)N(C)CC(=O)Nc1cccc(OC)c1
 : 0	x	-1.0	2	-16	3	6.3%
> COc1ccc(OC)c(C(=O)NC(CC(N)=O)c2ccc(NCCOc3ccccc3)c([N+](=O)[O-])c2)c1 (stereo not given)
 : -5	-4%	5.1	-17	-5	-7	-0.1%
> CS(=O)(=O)c1nc(S(=O)(=O)c2ccc(Cl)cc2)c(N2CCCCC2)s1
 : -3	4%	-1.4	7	-2	4	-1.1%
> CC1CCCCC12NC(=O)N(CC(=O)Nc1ccc(S(=O)(=O)Nc3ncccn3)cc1)C2=O (stereo not given)
 : -14	x	-1.2	-5	-6	x	7.0%
> CN(CC(=O)Nc1ccc(Cl)c(Cl)c1)C(=O)CNC(=O)C1CCCCC1
 : -3	x	-4.9	26	-11	0	5.3%
> O=C(COC(=O)/C=C/c1ccco1)NCc1ccccc1Cl
 : 0	7.9µM*	-2.5	-2	-20	2	2.7%

In another format: results already given.
Compound	D2 PAM	Sfp inh	D2 ag	Six1-Eya2 inh	TRPV1 PAM	CtBP-E1A blk	PINK1 modulator
O=C(COc1cccnc1[N+](=O)[O-])Nc1cccc(S(=O)(=O)N2CCOCC2)c1	4	4%	6.6	-3	23	x	-1.6%
CC1CCC2(CC1)NC(=O)N(CC(=O)N1CC(C)CC(C)C1)C2=O (stereo not given)	11	x	-1.2	7	x	-1	1.5%
Cc1ccc(C2NC(=O)Cc3ccccc32)cc1 (stereo not given)	0	-4%	-3.4	17	7	-3	1.0%

The listing continues.
Results follow in this order: D2 PAM	Sfp inh	D2 ag	Six1-Eya2 inh	TRPV1 PAM	CtBP-E1A blk	PINK1 modulator
> Cc1ccc(S(=O)(=O)N2CCC(C(=O)NCC3CCCCC3)CC2)cc1
 : -5	24%	-4.2	-3	-4	1	0.3%
> O=C(CNC(=O)c1n[nH]c2ccccc12)Nc1ccc(F)c(F)c1F
 : 14	x	1.3	1	x	5	3.4%
> CNc1sc(C(=O)c2cccs2)c(N)c1-c1nc2ccccc2s1
 : 1	13µM*	-0.5	u	28	u	0.5%
> Cc1ccc(S(=O)(=O)N2CCOCC2)cc1C(=O)Nc1cc(S(=O)(=O)N2CCCCC2)ccc1O
 : -9	x	-0.6	5	x	-6	1.0%
> CC(=O)NC(C)(c1ccccc1)c1nc(-c2cccc(F)c2)cs1 (stereo not given)
 : -8	x	-4.1	-3	x	1	3.0%
> CNS(=O)(=O)c1ccc(C(=O)NCC(=O)NC(C)c2cccs2)cc1 (stereo not given)
 : -2	x	0.7	-1	17	1	2.5%
> CC(=O)C1=NN(c2ccccc2)C2(S1)S/C(=C\c1ccccc1)C(=O)N2c1ccccc1 (stereo not given)
 : -11	3%	-1.9	-20	-26	-22	0.3%
> CC(C)(C)c1cc(C(=O)NCCN2CCCC2)cc(C(C)(C)C)c1
 : -17	0%	-2.6	-1	-16	-1	0.1%
> Cc1ccc(NC(=O)CCn2nc(C)cc2C)cc1
 : -32	25%	-3.6	10	u	-3	0.1%
> COc1ccc(Cl)cc1NC(=O)CCn1c(=O)oc2ccccc21
 : -11	13%	-0.7	-6	17	3	-1.7%&2.4%
> CCOC(=O)CN/C=C(\C#N)c1ccc(F)cc1
 : -11	10%	6.9	3	7	-5	-1.0%
> Cc1ccc(SCC(=O)c2sc(-c3ccccc3)nc2C)cc1
 : 7	-22%	-2.8	7	4	16	7.2%
> CC1CCC(C(C)C)C(=O)/C1=C\c1ccc(NC(=O)CCC(=O)O)cc1 (stereo not given)
 : -4	22%	-1.1	5	13	12	0.0%
> COc1ccc(-c2nc(S(=O)(=O)c3ccccc3)c(N3CCOCC3)o2)cc1
 : -6	-22%	-2.5	1	1	-13	-1.2%
> O=C1CCC/C(=N/NC(=O)c2cc(NS(=O)(=O)c3cccs3)cc(NS(=O)(=O)c3cccs3)c2)C1
 : -5	2%	-5.1	-10	-3	-11	2.8%
